Cruzain noTriton: cruzain (T. cruzi) inhibition without detergent | P25779 | purified cruzain, Z-FR-AMC fluorescence, no detergent | Potency, µM, without a hit: max response, negative = inhibition, hits mostly inhibitors | hit rate 2.3% among 200,000; active = well fitted curve in the direction sought with a large enough effect; inconclusive = small, poorly fitted or top-dose-only effect, or another doubt; inactive = no such curve, though single readings can be large; an effect the other way counts as inactive or inconclusive;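 also: plate controls were enzyme without inhibitor for no effect and buffer without enzyme for full effect; nearly all actives have a fitted effect of over 40% in size; top concentration of the series not given in the record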
Target sequence (P25779 123-467 limits assumed): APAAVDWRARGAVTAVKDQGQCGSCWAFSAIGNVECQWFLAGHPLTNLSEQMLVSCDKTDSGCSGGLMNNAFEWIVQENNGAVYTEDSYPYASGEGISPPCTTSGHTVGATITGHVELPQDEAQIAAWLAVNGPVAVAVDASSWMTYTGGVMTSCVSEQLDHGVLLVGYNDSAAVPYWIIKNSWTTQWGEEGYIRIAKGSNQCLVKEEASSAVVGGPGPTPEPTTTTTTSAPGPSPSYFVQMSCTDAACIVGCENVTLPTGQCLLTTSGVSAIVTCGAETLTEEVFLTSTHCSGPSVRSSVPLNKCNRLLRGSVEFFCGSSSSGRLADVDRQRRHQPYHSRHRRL
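Detergent-free condition (0.00005% Triton X-100) in acetate buffer pH 5.5 with DTT. 1.5 nM enzyme and compound were pre-mixed 15 min, then 2 uM Z-FR-AMC substrate added; reaction progress from fluorescence change between first and third reads (60 s).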
Cruzain Triton: cruzain (T. cruzi) inhibition with detergent; hit rate 0.43% among 200,000; purified cruzain, Z-FR-AMC fluorescence, 0.01% Triton; Potency, µM, for the others: max response, negative = inhibition, usual class: inhibitors; active = well fitted curve in the direction sought with a large enough effect; inconclusive = small, poorly fitted or top-dose-only effect, or another doubt; inactive = no such curve, though single readings can be large; an effect the other way counts as inactive or inconclusive;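 also: plate controls were neutral wells for no effect and buffer without enzyme for full effect; nearly all actives have a fitted effect of over 40% in size; top concentration of the series not given in the record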
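Sodium acetate buffer (100 mM, pH 5.5) containing 5 mM DTT and 0.01% Triton X-100 hosted 1.5 nM cruzain and test compound for 15 min at room temperature. Cleavage of 2 uM Z-FR-AMC was then tracked by fluorescence.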
RE007 growth inh: less growth of the S. pombe RE007 Vpr strain. hit rate 0.21% among 360,000. Potency, µM (doses to about 92.2 µM), for the others: at the highest dose activity change, negative = less growth. S. pombe RE007 Vpr strain, BacTiter-Glo ATP luminescence, 24 h; control for the full effect not named in the record. AID 651644; active = well fitted falling curve with a large enough effect; inconclusive = small, poorly fitted or top-dose-only effect; inactive = no such curve, though single readings can be large or run the other way;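 also: % is scaled to controls: 0 for no effect and ±100 for the full control effect; nearly all actives have a fitted effect of over 50% in size; the assay follows cell death caused by Vpr and the record does not say whether a fall means rescue or toxicity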
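Fission yeast RE007 carrying one integrated HIV-1 vpr copy, seeded at OD 0.01 in PMG+AL medium with 23 nL pinned compound. Grown 24 h at 30 degrees; viability read by BacTiter-Glo luminescence after 5 min.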
Marburg entry inh: Marburg virus entry inhibition; Potency, µM (doses to about 37.8 µM), inactives show at the highest dose activity change, negative = inhibition, most hits filed as inhibitors; Marburg virus pseudotyped entry inhibition, cell reporter; control for the full effect not named in the record; about a third of the inactives were read at about 46 µM; AID 540276; hit rate 1.8% among 300,000; active = well fitted inhibition curve with a large enough effect; inconclusive = small, poorly fitted or top-dose-only effect, or effect the other way; inactive = flat fitted curve, though single readings scatter; tested in HEK293 cells; about a fifth of its hits are not listed in these tables; also: % is scaled to controls: 0 for no effect and ±100 for the full control effect; luciferase read-out
StopGo reporter: FMDV 2A StopGo reporter, luciferase signal; hit rate 1.2% among 410,000; Potency, µM (titrated, usually from 57.9 µM), without a hit: at the top dose signal change, negative = less light; human cells with a luciferase reporter of 2A StopGo recoding; control for the full effect not named in the record; AID 1159524; active = well fitted falling curve with a large enough effect; inconclusive = small, poorly fitted or top-dose-only effect; inactive = no such curve, though single readings can be large or run the other way; tested in HEK293T cells; also: % is scaled to controls: 0 for no effect and ±100 for the full control effect; nearly all actives have a fitted effect of over 45% in size; luciferase light after 4 h
SARS PLpro yeast: inhibitors of SARS-CoV papain-like protease in yeast | S. cerevisiae expressing SARS-CoV PLpro, growth rescue; control for the full effect not named in the record | hit rate 0.19% among 330,000 | Potency, µM (doses to about 32.9 µM), inactives show at the top dose activity, positive = growth rescue; also: 0% is about no effect; nearly all actives have a fitted effect of over 55% in size; growth read by luminescence after 48 h
LASV entry inh: Lassa virus entry inhibition; Potency, µM (doses to about 37.9 µM), without a hit: at the highest dose activity change, negative = inhibition, hits mostly inhibitors; Lassa virus pseudotype entry inhibition, cell reporter; control for the full effect not named in the record; AID 540256; hit rate 1.2% among 300,000; active means well fitted inhibition curve with a large enough effect; inconclusive means small, poorly fitted or top-dose-only effect, or effect the other way; inactive means flat fitted curve, though single readings scatter; tested in HEK293 cells; also: % is scaled to controls: 0 for no effect and ±100 for the full control effect; nearly all actives have a fitted effect of over 50% in size; luciferase read-out
NS1 function inh: inhibitors of influenza NS1 protein function | S. cerevisiae slowed by influenza A NS1, growth recovery by OD600 | Potency, µM (doses to about 46.1 µM), without a hit: at the top dose activity, positive = more growth | hit rate 0.4% among 270,000 | AID 2326; also: actives are rising curves; nearly all actives have a fitted effect of over 50% in size
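S. cerevisiae expressing influenza A NS1, grown in glucose, washed, then diluted 1:100 into pH 6.0 -URA galactose medium with 23 nl compound. Growth recovery read as OD600; NS1-free strain serves as control.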
Starred values were filed as active, the others as inactive; ? = inconclusive; . = no result given; & = joins results of further samples; [ ] = dose if it differs, or a comment. Unless noted, calls follow the shape of the dose curve; as a rule, active means well fitted rising curve with a large enough effect; inconclusive means small, poorly fitted or top-dose-only effect; inactive means no such curve, though single readings can be large or run the other way. Potency is read from the fitted curve at half-maximal effect.

SMILES	Cruzain noTriton	Cruzain Triton	RE007 growth inh	Marburg entry inh	StopGo reporter	SARS PLpro yeast	LASV entry inh	NS1 function inh
O=C(NCc1ccco1)C1CC(c2ccc(F)cc2)=NO1 (stereo not drawn)	.	.	6%	23%[46.1 µM]	30%[activator]	-1%	10%	-5%
O=C(NCCN1CCCC1)C(c1ccccc1)c1ccccc1	.	.	-9%	.	?	19%	.	-1%
Cc1nc2ccn(Cc3ccccc3)c(=O)c2cc1C(=O)N1CCN(c2ccccc2F)CC1	?	-5.1%	.	.	-15%	.	-1%[46.1 µM]	.
CCOCCCNC(=O)C(NC(=O)c1cnccn1)c1ccc(OC)cc1 (stereo not drawn)	-5%	0.7%	0%	-10%[46.1 µM]	15%	2%	-23%	-7%
O=C(/C=C/c1ccccc1)Oc1cccc(C(=S)N2CCOCC2)c1	.	.	3%	11%[46.1 µM]	14%	5%	1%	.
O=C(O)CCCNC(=O)C(c1ccccc1)c1ccccc1	12%&2%	-1.1%&-2.4%	2%&17%	?	2%&1%	?	-25%&19%	21%&8%
O=C(NCc1nnc(SCc2ccc(F)cc2)n1-c1ccc(F)cc1)C12CC3CC(CC(C3)C1)C2	0%	-5.0%	-10%	8.9µM*	-24%	-17%	?	-5%
CCn1cc(C(=O)NCCCOC(C)C)c(=O)c2cc(S(=O)(=O)N3CCC(C)CC3)ccc21	.	.	-1%	.	-2%	-5%	.	22%
COC(=O)CCCC1=CC2=CC(=O)C(C)(OC(=O)c3cccs3)C(=O)C2=CN1CCc1c[nH]c2ccccc12 (stereo not drawn)	.	.	-4%	-8%&-8%[14.2 µM]	-8%	0%	.	14%
Cc1coc2c1C(=O)C(=O)c1c-2ccc2c(C)cccc12	.	.	-14%	.	?	-5%	.	-76%
Cc1cc(C(=O)OCC(=O)Nc2ccccc2[N+](=O)[O-])c2ccccc2n1	-30%	0.5%	16%	?	-8%	19%	1%	-12%
COc1cc(OC)nc(NC(=O)COC(=O)c2cccc(Cl)c2)n1	.	.	21%	-1%[46.1 µM]	-16%	-4%	.	.
Cc1cccc(-c2noc(CNC(=O)c3ccc(C)cc3C)n2)c1	-2%	-7.6%	.	15%[46.1 µM]	-19%	.	17%[46.1 µM]	.
Cc1ccc(CNC(=O)CCn2nc(-c3ccc(Cl)cc3)ccc2=O)cc1	?	-0.2%	-8%	0%	-10%	4%	18%[14.3 µM]	2%
Cc1cn2c(-c3ccncc3)nnc2s1	5%	-1.1%	-3%	27%&27%	-15%	?	-4%	?
CCOCCCn1c(=N)c(C(=O)NCC2CCCO2)cc2c(=O)n3cc(C)ccc3nc21 (stereo not drawn)	?	0.8%	.	?	-14%	.	17%[46.1 µM]	.
Cc1nc(SCC(=O)N(CC(C)C)C2CCS(=O)(=O)C2)c2c(C)c(C)sc2n1 (stereo not drawn)	.	.	-14%	?	-15%	1%	-8%	.
O=C(COc1ccc(F)cc1)Nc1nnc(S(=O)(=O)N2CCCC2)s1	3%	-1.2%	11%	.	-14%&-19%	4%	-2%[46.1 µM]	-3%
CCOC(=O)C1CCCN(S(=O)(=O)c2cc(-c3cc(C)no3)ccc2OC)C1 (stereo not drawn)	?	-4.4%	.	.	?	.	0%[46.1 µM]	.
CN(C)S(=O)(=O)N(CC(=O)Nc1ccc(S(=O)(=O)N2CCCC2)cc1)c1ccccc1	.	.	-3%	14%	-24%	1%	-8%	-6%
COc1cccc(OC)c1C(=O)Nc1cccc(-c2nc3cc(C)cc(C)c3o2)c1	-25%	-5.2%	.	-30%[46.1 µM]	0%	.	-27%[46.1 µM]	.
O=C(O)C1C2C=CC(C2)C1C(=O)NCc1cccs1 (stereo not drawn)	.	.	2%	-10%[46.1 µM]	0%	0%	-7%	0%
COc1cc(CN(C(=O)c2ccccc2Br)c2ccccn2)cc(OC)c1OC	7%	-2.9%	.	?	-15%	.	-10%[46.1 µM]	.
Cc1ccc(Nc2nnc(SC/C(O)=C(\C#N)c3nc4ccccc4[nH]3)s2)c(C)c1	-18%	-9.0%	-7%	17%	-11%	-2%	2%	8%
O=C(NCCCN1CCCC1=O)C1CCCO1 (stereo not drawn)	.	.	1%	-15%	1%	1%	-10%	.
SMILES	Cruzain noTriton	Cruzain Triton	RE007 growth inh	Marburg entry inh	StopGo reporter	SARS PLpro yeast	LASV entry inh	NS1 function inh
COc1cc2c(cc1NC(=O)CSc1cccc[n+]1[O-])oc1ccccc12	27%	-14%	20%	-9%	-6%	3%	12%	-6%
O=C(CCc1nc2sc3c(c2c(=O)[nH]1)CCCC3)Nc1cccc(Cl)c1	.	.	41%	?	-4%	-1%	?	.
CCc1ccc(S(=O)(=O)N2CCCC(N3CCN(c4ccc(OC)cc4)CC3)C2)cc1 (stereo not drawn)	.	.	1%	-12%	-25%	-7%	?	-6%
O=C(CCc1nc(-c2ccccc2F)no1)NC1CCN(Cc2ccccc2)CC1	9%	1.9%	3%	-22%	-22%	-1%	5%	?
CCN(CC)c1ccc(C2C(C(=O)Nc3ccccc3C)=C(C)Nc3ncnn32)cc1 (stereo not drawn)	0%	0.4%	.	.	-4%	.	-8%[46.1 µM]	.
OC(CCN1CCOCC1)c1ccccc1 (stereo not drawn)	.	.	-12%	-2%[46.1 µM]	-8%	-6%	8%[46.1 µM]	11%
CC(C)CN(Cc1c(O)ccc2c(=O)c(-c3ccccc3)coc12)CC(C)C	.	.	11%	.	5%	-7%	.	-6%
CN(c1nc2ccccc2[nH]c1=O)C1CCCCC1	.	.	9%	1%[46.1 µM]	-8%	-1%	6%	-9%
Cc1cc(C)c(C)c(S(=O)(=O)Nc2ccc(C(N)=O)cc2)c1C	.	.	-2%	?	29%	-2%	11%[46.1 µM]	.
CCOc1ccccc1NC(=O)CSc1nc2c(oc3ccccc32)c(=O)n1Cc1ccco1	-7%	-2.3%	.	?	-6%	.	.	.
CC(=O)c1ccc(NC(=O)c2ccc(-n3cnnn3)cc2)cc1	.	.	-6%	4%[46.1 µM]	-13%	-2%	4%	.
COCCNC(=O)Cn1cnc2sc(C)c(S(=O)(=O)N3CCN(c4ccccc4OC)CC3)c2c1=O	-1%	4.2%	-15%	?	-10%&-12%	-3%	-14%&2%[46.1 µM]	3%
O=C(NCc1ccccc1F)C1CCCN(C(=O)Nc2ccccc2)C1 (stereo not drawn)	.	.	11%	?	9%	6%	-6%[46.1 µM]	0%
CCN(CC)S(=O)(=O)c1ccc(N2CCOCC2)c(NC(=O)c2c3c(nc4ccccc24)CCC3)c1	?	-5.4%	-11%	?	0%	-19%	-12%	5%
OCc1ccnc2oc3ccccc3c12	.	.	-7%	-29%	-6%	.	18%	.
Cn1ccs/c1=N\S(=O)(=O)c1ccc(F)cc1	-5%	0.0%	-11%	19%[46.1 µM]	21%	9%	-8%	1%
O=C(Cn1cnc([N+](=O)[O-])n1)NCCc1ccccc1	.	.	6%	6%[46.1 µM]	18%	-1%	29%[46.1 µM]	1%
CCOC(=O)c1sc2nc(CC(=O)OC)nc(NCc3ccc(Cl)cc3)c2c1C	25%	8.4%	-2%	-9%	-29%	9%	-5%	0%
O=C(COC(=O)CCNS(=O)(=O)c1ccc(Cl)cc1)Nc1ccccc1OC(F)F	.	.	4%	7%	-2%	14%	5%	.
CC(C)c1c(C(=O)N/N=C/c2ccc(-c3ccccc3)cc2)nnn1-c1nonc1N	.	.	4%	.	-14%	5%	.	2%
COc1ccc(N2CCN(CCNC(=O)c3ccc4c(c3)[nH]c(=S)n3c5ccccc5nc43)CC2)cc1	.	.	16%	?	-17%	-7%	-12%	.
COc1ccc(OC)c(NC(=O)COC(=O)C2CCC2)c1	.	.	-14%	?	2%	0%	-5%	.
CS(=O)(=O)c1ccc2nc(NC(=O)C3CC(=O)N(c4ccc(F)cc4)C3)sc2c1 (stereo not drawn)	.	.	22%	15%[46.1 µM]	1%	-1%	?	-2%
O=C(Cn1cnnn1)Nc1cccc([N+](=O)[O-])c1	.	.	-24%	1%	-21%	-6%	-2%	.
COc1ccc(CCNC(=O)C2CCC(=O)N(CC3CCCCC3)C2)cc1 (stereo not drawn)	.	.	3%	?	-12%	2%	-2%	-3%
SMILES	Cruzain noTriton	Cruzain Triton	RE007 growth inh	Marburg entry inh	StopGo reporter	SARS PLpro yeast	LASV entry inh	NS1 function inh
COc1ccc2oc(=O)c(C(=O)N3CCN(C(=O)c4ccccc4)CC3)cc2c1	.	.	2%	-1%[46.1 µM]	-17%	0%	-3%[46.1 µM]	4%
CCOC(=O)c1c(NC(=O)COc2c(C)cc(Cl)cc2Cl)sc2c1CCCC2	1%	-1.7%	.	.	-13%	.	-1%[46.1 µM]	.
O=C(CN1C(=O)c2cccnc2Oc2ccc(Cl)cc21)N1CCCC1	.	.	-10%	3%[46.1 µM]	-6%	7%	16%[46.1 µM]	14%
CCc1cc2c(SCC(=O)N3CCCC3=O)ncnc2s1	.	.	25%	?	18%	5%	-18%	.
CN(C)C(=O)c1coc2nc3ccccc3nc12	.	.	0%	?	-5%	-1%	?	-5%
CNc1oc(-c2cccs2)nc1C#N	?	?	-18%	7%&7%	8%	-6%	7%	-19%
Cc1c(NC(=O)CN(c2ccc(F)cc2)S(=O)(=O)c2ccccc2)c(=O)n(-c2ccccc2)n1C	.	.	-6%	14%	-24%	-1%	-2%	0%
CCOc1ccc(CCNc2nc3ccccc3n3cnnc23)cc1OCC	.	.	-2%	?	-19%	-2%	-13%	-3%
CCN(CC)CCCN=C(C)c1c(O)n(-c2ccc(C)cc2)c(=O)[nH]c1=O	-5%	1.2%	18%	-4%	-2%	2%	3%	1%
COc1cc(S(=O)(=O)Nc2ccccc2)ccc1NC=O	-11%	7.1%	1%	?	37%[activator]	8%	-4%	-7%
CCN(CC)S(=O)(=O)c1ccc(C(=O)NCC2CCCCC2)cc1	.	.	0%	0%[46.1 µM]	-12%	1%	7.1µM*	-9%
COCCNC(=O)C(c1c[nH]c2ccccc12)N(C(=O)c1snc(C(N)=O)c1N)c1cccc(OC)c1 (stereo not drawn)	.	.	1%	?	2%	-1%	10%	.
CC(C)CCn1nc(C(=O)OC(C)C(=O)NC(N)=O)c2ccccc2c1=O (stereo not drawn)	11%	0.2%	-5%	0%	-9%	2%	0%	-8%
